VACV Venus inh: qHTS for Stage-Specific Inhibitors of Vaccinia Orthopoxvirus: Venus Reporter Primary qHTS. Vaccinia virus Venus reporter expression, fluorescence. Potency, µM (series often up to 36.5 µM), without a hit: at the highest dose activity change, negative = inhibition, hits mostly inhibitors. actives 0.46% (n = 330,000); active means well fitted inhibition curve with a large enough effect; inconclusive means small, poorly fitted or top-dose-only effect; inactive means no such curve, though single readings can be large or run the other way; tested in A549 cells; note: nearly all actives have a fitted effect of over 30% in size; inactives centre near -10
VACV mCherry inh: qHTS for Stage-Specific Inhibitors of Vaccinia Orthopoxvirus: mCherry Reporter Primary qHTS. Vaccinia virus mCherry reporter infection, fluorescence; about a quarter of the inactives have no number. Potency, µM (doses to about 36.5 µM), for inactives: at the top dose activity change, negative = inhibition, actives largely listed as inhibitors. actives 0.63% (n = 310,000); active = well fitted inhibition curve with a large enough effect; inconclusive = small, poorly fitted or top-dose-only effect; inactive = no such curve, though single readings can be large or run the other way; tested in A549 cells; note: nearly all actives have a fitted effect of over 35% in size; inactives centre near -10
* hit, by the source's call; i = inactive; ? = inconclusive; / = not tested or not shown; & = joins results of further samples; [ ] = dose if it differs, or a comment. % is set by controls: 0 for no effect and ±100 for the full control effect; potency is the fitted concentration of half-maximal effect.

The line under a structure holds: VACV Venus inh, VACV mCherry inh
CCn1c(SCC(=O)N2CCC(C(N)=O)(N3CCCCC3)CC2)nc2ccccc2c1=O
→ 6%, -8%
COC(=O)C(O)(c1ccc(N(C)S(=O)(=O)c2ccccc2)cc1)C(F)(F)F (stereo unspecified)
→ -2%, -15%
Nc1ncnc2c1ncn2C1C=C(CO)C(O)C1O (stereo unspecified)
→ ?, 1.1µM*
FC(F)(F)c1cc(CCN2CCNC[C@@H]2CC2CCCCC2)cc(C(F)(F)F)c1
→ ?, ?
CCCOc1ccc(-c2c(C(=O)N/N=C/c3ccco3)nnn2-c2nonc2N)cc1
→ 2%, ?
O=C(Nc1ccc(C(=O)N2CCCC2)cc1)c1ccccc1Br
→ -12%, i
COCCNc1cc(C)nc2ccccc12
→ -4%, /
COc1cccc(NC(=O)CCCCCn2nnc3ccccc3c2=O)c1
→ -7%, -13%
CCOC(=O)Cc1cc(=O)n2[nH]c(C)c(C#N)c2n1
→ -1%, -23%
CC(=O)Nc1cncc(-c2ccccc2N(C)C)n1
→ 2%, 4%
O=C(NCC(=O)N1CCN(c2ncccn2)CC1)c1ccccc1OC(F)F
→ -9%, -19%
CC(=O)C1C=CC(C)(C(=O)O)C2C=C(C)C(=O)C(C)(O)C12 (stereo unspecified)
→ -7%, i
CN1CCC(=O)N([C@H](CSc2ccccc2)c2ccccc2)CC1
→ -16%&-11%, -6%&-17%
O=C(N=C1SC2CS(=O)(=O)CC2N1c1ccccc1Cl)C1CCCO1 (stereo unspecified)
→ -3%, -13%
COC(=O)CCC(=O)Nc1cccc2ccccc12
→ -12%, i
CCOc1ccc2nc3ccc4[nH]onc4c3c2c1
→ -27%, -10%
CC1=C(C(=O)OC(C)C)C(c2ccncc2)n2ncnc2N1 (stereo unspecified)
→ -9%, /
Cc1nc(CSc2ccc(Cl)cc2)cc(NCc2ccccc2)n1
→ 5%, -11%
COc1ccc(C2N(c3ccc(F)cc3)C(=O)C3CCCN32)cc1 (stereo unspecified)
→ -3%, -12%
COCc1nnc(NS(=O)(=O)c2ccc(C)cc2)s1
→ -7%, -14%
COc1ccc(C(=O)N2CCOc3ccc(CN4CCN(c5ccccn5)CC4)cc3C2)o1
→ -3%, -7%
CN(C)c1ccc(CN(C)C2CCCCC2)cc1
→ -7%, -2%
NS(=O)(=O)c1ccc(CCNC(=O)C(=O)NCC2OCCN2S(=O)(=O)c2ccc(Cl)cc2)cc1 (stereo unspecified)
→ 0%, 0%
Cc1c(CC(=O)NCc2ccccc2)c(=O)oc2c(C)c(O)ccc12
→ -12%, -22%
O=C(CCS(=O)(=O)c1cccs1)Nc1ccc(C(=O)NC2CCCC2)cc1
→ -15%, -6%
Cc1ccc(/C=C/c2onc(C)c2S(=O)(=O)N2CCC(C(=O)N3CCOc4ccccc43)CC2)cc1
→ -13%[7.34 µM], -18%[7.34 µM]
CCCCN(C(=O)C1CC(=O)N(c2ccc(C)cc2)C1)c1c(N)n(CCC)c(=O)[nH]c1=O (stereo unspecified)
→ -4%, -13%
Cc1nn(-c2ccccc2)c(C)c1/C=C/C(=O)OCC(=O)NC1CCS(=O)(=O)C1 (stereo unspecified)
→ -13%, -11%
COc1ccc(-c2oc3ncn4nc(COc5ccccc5C)nc4c3c2-c2ccc(OC)cc2)cc1
→ -3%, -3%
Cc1ccccc1NC(=O)CSc1nc2ccccc2c2nc(CCn3c(C)nc4ccccc43)nn12
→ ?, ?
CN(C)c1ccc(CC(=O)N2CCCCC2c2cc(C(=O)Nc3ccccc3)no2)cc1 (stereo unspecified)
→ ?, ?
COc1ccc(S(=O)(=O)N2CCCC(C(=O)N3CCCCCC3)C2)cc1 (stereo unspecified)
→ -4%, /
Cc1cc(NCCOCCO)n2c(nc3ccccc32)c1C#N
→ -7%, -2%
COc1ccc(-n2c(=O)c3c(C)c(C)sc3n(CC(=O)NCc3ccc(C)cc3)c2=O)c(OC)c1
→ -10%, -20%
O=c1[nH]c(-c2ccccn2)nc2ccccc12
→ -17%, /
Cc1ccc(C)c(NC(=S)NCCSc2ccc(Cl)cc2)c1
→ -17%, -5%
COc1ccc(S(=O)(=O)N2CCC(C(=O)NCCC3=CCCCC3)CC2)cc1OC
→ -22%, -4%
COc1cc(-c2cnc3c(NC=O)cc(-c4ccc(N5CCN(C)CC5)cc4)cn23)cc(OC)c1OC
→ -23%, -23%
N#Cc1ccc(Cn2c(-c3ccc(F)cc3)noc2=O)cc1
→ -13%, -28%
Cc1ccc(N(C)S(=O)(=O)c2cccc(C(=O)NC3CC(C)(C)NC(C)(C)C3)c2)cc1
→ -23%, ?
O=C(CSc1nnc(-c2ccccc2O)o1)N1CCOCC1
→ -15%, i
CCn1cc(C(=O)NCCc2ccccc2)c(=O)c2cc(S(=O)(=O)N3CCc4ccccc4C3)ccc21
→ -29%, -17%
COc1cccc(NC(=S)NN=C2CCCCCC2)c1
→ -5%, 0%
Cc1ccsc1/C=N/NC(=O)CN1CCN(S(=O)(=O)c2ccc(Br)cc2)CC1
→ -14%, i
CCSc1ncc(Cl)c(C(=O)Nc2cc(C)ccc2C)n1
→ -2%, -10%
Cc1[nH]c2ccccc2c1C1N2CC3(C)CN1CC(C)(C2)C3=O (stereo unspecified)
→ -2%, -2%
COC/C=C/C1=CC2=CC(=O)C(C)(OC(=O)c3cnc4ccccc4n3)C(=O)C2=CN1CCN1CCOCC1 (stereo unspecified)
→ 3%, -12%
COc1cccc(N2CCN(C(=O)CSc3ccc(F)cc3)CC2)c1
→ 0%, -1%
O=C(C1CCN(Cc2ccccc2)CC1)N1CCCC1
→ -15%, -8%
CN1C(=O)CSc2ccc(NC(=O)N3CCN(c4ccccn4)CC3)cc21
→ -12%, -1%
Cc1cc(C(=O)N2CCN(c3ccc([N+](=O)[O-])cc3)CC2)no1
→ -24%, -23%
CCN(CC)C(=O)c1cccc(-c2csc(C(NC(C)=O)c3ccccc3)n2)c1 (stereo unspecified)
→ -12%, 5%
COc1ccccc1CN1CC(C(=O)N2CCCCCCC2)CCC1=O (stereo unspecified)
→ -7%, -2%
Oc1cccc(Nc2nc(O)c(/C=C3\C=Nc4ccccc43)s2)c1
→ 50%[activator], ?
CC(OC(=O)C1=Cc2ccccc2OC1)C(=O)NC1CCCC1 (stereo unspecified)
→ -16%, -12%
NCCCCCC(=O)Nc1ccncc1
→ -9%, i
COc1cccc(NC(=O)CN(C)C(=O)CSc2ncnc3sc(C)c(C)c23)c1
→ -16%, i
CN1CC(=O)Nc2ccc([N+](=O)[O-])cc2C1=O
→ 4%, -9%
S=C(Nc1ccc(Br)cc1)NC1CCCCC1
→ -22%, -20%
CCOC(=O)N1CCN(c2nnc(-c3ccccc3)c3ccccc23)CC1
→ -11%, i

(continued)
mol	VACV Venus inh	VACV mCherry inh
O=C(COCc1cc(-c2ccc(F)cc2)on1)Nc1cccc(C(F)(F)F)c1	-5%	-5%
CCCOc1ccc(NC(=O)CC2C(=O)N(c3cccc(OC)c3)C(=O)N2Cc2cccs2)cc1 (stereo unspecified)	-16%	-16%
CCCNC(=O)C1(C)CCN(Cc2cc3ccccc3o2)C1 (stereo unspecified)	1%	8%
CCN1CCN(S(=O)(=O)c2ccc(Cl)c(C(=O)N(C)C(c3ccccc3)c3ccccc3)c2)CC1	-11%	-22%
Cc1ccc(NC(=O)COC(=O)C2CCC2)cc1S(=O)(=O)N1CCOCC1	-8%	-1%
COc1ccccc1N1CCN(C(=O)CCNS(=O)(=O)c2ccc3c(c2)CCN3C(=O)C2CC2)CC1	-14%	-13%
N#Cc1c(-c2ccc(F)cc2)noc1N	-20%	-16%
CCc1ccc(NC(=O)/C(C#N)=C/c2cc3ccc(C)cc3nc2N2CCOCC2)cc1	7%	-11%
COC(=O)c1ccc(C(=O)NCCCCO)cc1	3%	i
COc1ccc(Cl)cc1NC(=O)Cn1cc(C(=O)c2ccncc2)c(=O)c2cc(C)ccc21	-6%[7.34 µM]	-11%[7.34 µM]
CCc1ccc(C(=O)c2cn(CC(=O)Nc3ccc(Cl)cc3)c3cc4c(cc3c2=O)OCO4)cc1	-8%	-15%
Cc1ccc(Cn2c(-n3nc(C)cc3C)nc3c2c(=O)[nH]c(=O)n3C)cc1	-13%	i
O=C(NC1CCCCC1)c1cc(-c2ccc(F)cc2)on1	-4%	-5%
CCOC(=O)C1CCCN(S(=O)(=O)c2ccc3c(c2)C(C)(C)C(=O)N3C)C1 (stereo unspecified)	-13%	2%
CSCC[C@H](NC(=O)OC(C)(C)C)C(=O)N1CCC(C(=O)N[C@@H](C)C(=O)NCc2ccc(F)cc2)CC1	-1%	-8%
Cc1ccc(-c2nnc(Nc3ccc(Cl)c(Cl)c3)c3ccccc23)cc1S(=O)(=O)NCCO	-28%	?
N#Cc1ccccc1NC(=O)COc1ccccc1C(=O)Nc1ccccc1	9%	-11%
O=C(CCC(NC(=O)OCc1ccccc1)C(=O)OCc1ccccc1)NCC(=O)OCc1ccccc1 (stereo unspecified)	-7%	-8%
O=C(Nc1ccccc1OC(F)F)C1CCCN1C(=O)c1cccs1 (stereo unspecified)	-16%	-19%
CCCNC(=O)c1cc(C2CCCCN2C(=O)OC)on1 (stereo unspecified)	3%	-10%
CCCOc1ccc(N2C(=O)C3ON(c4ccccc4)C(CCC)C3C2=O)cc1 (stereo unspecified)	-12%	-12%
O=C(CNC(=O)c1ccccc1)OC(C(=O)Nc1cc(C(F)(F)F)ccc1Cl)c1ccccc1 (stereo unspecified)	-11%&-13%&-21%	-9%&-13%&-22%
Nc1ccc2nc(Cc3ccccc3)[nH]c2c1	12%	-12%
CCN(CC)c1nc(C#N)cc(-c2ccc(OC)cc2)n1	?	/
COc1ccc(C(C)=O)cc1CC(C(=O)c1ccc(F)cc1)N(C)C (stereo unspecified)	9%	-13%
Cc1cc(NC(=O)CSc2nc(-c3ccccc3F)nc3c2c(=O)n(C)c(=O)n3C)no1	-24%	-29%
O=C(COc1ccccc1C(=O)Nc1ccccc1)Nc1ccc2ccccc2c1	-20%	-7%
Cc1ccc(S(=O)(=O)N2CC3(O)CN(C(=O)OC(C)C)N(C(=O)OC(C)C)CC3(OC(=O)NCC3CCCCC3)C2)cc1 (stereo unspecified)	?	i
CCn1c(=O)c(C(=O)NNS(=O)(=O)c2ccc(Cl)cc2)c(O)c2ccccc21	-1%	i
COc1cc(/C=N/Nc2nc3ccccc3[nH]c2=O)ccc1O	7%	i
CC(C)c1ccc(C2NC(=O)c3c(sc4c3CCN(C)C4)N2)cc1 (stereo unspecified)	16%	4%
Nc1ccc2c(c1)nnn2-c1ccccc1	-19%	i
CCCn1c(C)cc(=O)c2cc(NC(=O)c3ccccn3)ccc21	-9%	/
COc1cc(OC)cc(-c2oc(=O)c3cc(OC)c(OC)cc3c2C#CCCCO)c1	-19%	-2%
C=CCn1c(SCC(=O)Nc2sccc2C#N)nc2sc(C)c(C)c2c1=O	-11%	-3%
CCOC(=O)Cn1c2ccccc2n2nc(CCC(=O)O)c(=O)nc12	-1%	2%
CC1ON=C(c2ccc(F)cc2)NC1=O (stereo unspecified)	7%	17%
COc1ccc(-c2c(C#N)c(C)nc3c2C(=O)c2ccccc2-3)cc1	?	?
Cc1ccc2oc(=O)n(CCC(=O)Nc3ccc(N4CCOCC4)cc3)c2c1	-8%	-11%
O=C(Nc1ccc2c(c1)OCO2)C1CCCN1C(=O)Nc1ccccc1 (stereo unspecified)	-4%	-5%
O=C(CNC(=O)c1ccc(Br)o1)Nc1ncccc1O	-1%	-15%
Cc1cccc(N2CCc3c2nc2ccc(Br)cc2c3N)c1	?	11µM*
Cc1cc(Nc2ccc3ccccc3c2)n2ncnc2n1	-14%	-16%
O=C(CC1C(=O)NCCN1C(=O)Nc1ccccc1)Nc1cc(Cl)ccc1Cl (stereo unspecified)	-2%[7.34 µM]	-6%[7.34 µM]
O=C(NCCC(=O)N(CCc1ccccc1)Cc1ccccc1)c1ccc([N+](=O)[O-])cc1	-17%	-22%
O=C(Nc1cccc2c1C(=O)NC2=O)c1ccc(S(=O)(=O)N2CCCC2)cc1	-7%	-8%
Cc1cc(=O)[nH]c(N/N=C/c2cccs2)n1	-8%	-14%
COc1ccc(C(=O)N/N=C/c2cc3ccccc3[nH]c2=S)cc1	-21%	-9%
Cc1ccc(OC(=O)c2snnc2C)cc1C	6%	-3%
C#Cc1cccc(C(=O)NCc2nc(-c3ccccc3NC(=O)C3CCCO3)oc2C)c1 (stereo unspecified)	1%	-7%
O=c1ccn(-c2cccc(C(F)(F)F)c2)nc1-c1ccn(-c2ccccc2F)n1	-19%	/
O=C(NCc1ccccc1Cl)C1CCCO1 (stereo unspecified)	4%	-14%
Cc1ccc2c(c1)-c1onc(C(=O)N3CCN(c4ccc(Cl)cc4)CC3)c1CO2	10%	-1%

Looked up by compound from the list above, 5 records:
mol	VACV Venus inh	VACV mCherry inh
Cc1ccc(OC(=O)c2snnc2C)cc1C	6%	-3%
O=C(NCc1ccccc1Cl)C1CCCO1 (stereo unspecified)	4%	-14%
Cc1cc(=O)[nH]c(N/N=C/c2cccs2)n1	-8%	-14%
Cc1ccc2c(c1)-c1onc(C(=O)N3CCN(c4ccc(Cl)cc4)CC3)c1CO2	10%	-1%
Cc1cccc(N2CCc3c2nc2ccc(Br)cc2c3N)c1	?	11µM*
